Tg IFNy HTS: inhibitors of Toxoplasma gondii growth with IFN-gamma; Toxoplasma gondii growth in IFN-gamma-treated host cells; stronger effect = lower value; reference of the scale not given here; activity change, negative = inhibition, %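 (about 20 µM by stock and volumes)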; actives 3.8% (n = 69,000);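 active = below -70%; inconclusive = fit judged invalid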;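 also: host cells are HeLa cells infected with Toxoplasma gondii; parasite growth read as luciferase light; one replicate is shown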
The depositor's hits bear a star; i = inactive; u = inconclusive; & = joins results of further samples. These rows are one share of the data; count on the stated rates, not on these rows.

SMILES	Tg IFNy HTS
CCn1c(C2CCN(CCC(C)c3ccc(C)o3)CC2)n[nH]c1=O (stereo not drawn)	-52
CCc1nc(C)c(C(=O)NCCSc2nnc(C)s2)s1	5
Cc1cc(NC(=O)CCC(=O)N(CC(=O)NCC2CCCO2)c2ccccc2)no1 (stereo not drawn)	-17
FC(F)(F)c1cccc(OCc2ccc(-c3ncns3)cc2)c1	-25
O=C1N[C@H](c2ccccc2)COCc2cn(nn2)CC[C@H]1Cc1cccc(Cl)c1	-3
O=C(O)c1cccc(N2C(=O)CCCC2=O)c1	-16
O=C(Cc1c[nH]c2ccccc12)NC1CCCN(c2cc(-c3ccncc3)[nH]n2)C1 (stereo not drawn)	111
CC/C=C(\C)CN1CCC(CNC(=O)c2cccc(O)c2C)C1 (stereo not drawn)	-5
Cc1oc(C2CCN(S(=O)(=O)c3ccccc3)CC2)nc1C(=O)N1CCOCC1	107
Cc1cc(C)c(S(=O)(=O)N2CCC[C@@H]2C(=O)NCCc2csc(C)n2)c(C)c1	-18
O=C(c1ccc2c(c1)OCO2)N1CC[C@@H]2[C@@H](CO)Nc3ccc(C#Cc4ccccc4)cc3[C@@H]21	-3
CCc1[nH]ncc1C(=O)NCc1cccnc1Oc1cccc(C(F)(F)F)c1	-49
COc1cc2nc(Cc3cccs3)n(NC(=O)C3CCC3)c(=O)c2cc1OC	-10
CC(C)N(C(=O)CSc1nnnn1Cc1ccccc1)C(C)C	-49
CN(Cc1ccc(-c2nc(-c3cccnc3)cc(=O)[nH]2)cc1)CC1COCCO1 (stereo not drawn)	-9
Cc1ccc(CN2CCC3C2CC(=O)N3CCN2CCOCC2)cc1 (stereo not drawn)	7
CN(C)C(=O)c1cccc(-c2ccc([C@@H]3[C@@H](CO)N4CCCCN(CC5CCOCC5)C[C@@H]34)cc2)c1	20
COc1ccc(C2c3[nH]c4ccccc4c3CCN2C(=O)c2ccc3c(c2)OCO3)cc1 (stereo not drawn)	-81*
CCC(NC(=O)Cn1ccnc1-c1ccccc1)c1ccc(F)cc1 (stereo not drawn)	29
O=c1[nH]c(-c2ccc(Cl)cc2)nc2c1CSC2	141
Cc1ccc2c(c1)c(CNC(=O)c1cccc(C#CC(C)(C)O)c1)nn2C	-1
CCc1ccc(C(C(=O)NC2CCCC2)N(Cc2cccs2)C(=O)c2ccco2)cc1 (stereo not drawn)	-42
OC1CSc2sc(=S)sc2SC1	65
COc1ccc(NC(=O)N(C)C[C@H]2Oc3c(NC(=O)CCCCCC(=O)Nc4ccccc4N)cccc3C(=O)N([C@H](C)CO)C[C@@H]2C)cc1	-17
COC(=O)CC(=O)Nc1ccc(-c2nc(-c3ccccc3)co2)cc1	191
CC(C)(C)c1nnc(NC(=O)NCC2CC(=O)N(C3CCCC3)C2)s1 (stereo not drawn)	-5
C=CCN(c1ccccc1)c1nc(C(=O)OCC)nc2ccccc12	-27
COCC1(C(=O)N2Cc3cnc(C(C)(C)C)nc3C2)CCC1	-16
CCCN1CCC(Cc2noc(C3CCOC(C)(C)C3)n2)CC1 (stereo not drawn)	-22
CC(C)c1nc(CN(C)Cc2cc3ccccc3[nH]c2=O)cs1	7
COc1cc(N)c(Cc2nccc3cc(OC)c(OC)cc23)cc1OC	-1
C[C@H]1CN([C@@H](C)CO)C(=O)c2ccccc2-c2ccccc2CO[C@@H]1CN(C)Cc1cccc(C(=O)O)c1	10
CCOCC1CN(CC2CCOCC2)Cc2ncn(C)c21 (stereo not drawn)	-43
Cc1oc(-c2cccc(Cl)c2)nc1Cn1c(=O)cc(C(=O)N2CCCCC2)c2ccccc21	-68
CC(=O)Oc1ccccc1/C(=C/C=C(c1ccccc1)c1ccccc1)N1CCCCC1	43
CCN1C(=O)C(c2ccccc2)CC12CCN(Cc1nccs1)CC2 (stereo not drawn)	6
COc1ccccc1C(=O)N=C1NC(=O)CC2C(=O)NCCN12 (stereo not drawn)	30
COc1cccc(C2(O)CCN(CCNC(=O)C3CC=CCC3)CC2)c1 (stereo not drawn)	9
CCN(Cc1cccc(C(=O)Nc2cnn(C)c2)c1)Cc1nc(C)no1	6
CSc1ccc(C2c3[nH]c4ccccc4c3CCN2C(=O)c2ccccc2F)cc1 (stereo not drawn)	310
CN1CCCn2c(nc(CNC(=O)c3ccsc3)cc2=O)C1	69
O=C(c1ccco1)N1Cc2ccnn2CC(COc2cccnc2)C1 (stereo not drawn)	55
CSc1ncc(CN(Cc2sccc2C)CC(C)O)cn1 (stereo not drawn)	40
COc1ccc(C2NC(C(=O)O)Cc3c2[nH]c2ccccc32)cc1OC (stereo not drawn)	3
C[C@@H]1CN([C@H](C)CO)C(=O)c2cccc(NC(=O)c3ccc(-c4nccs4)cc3)c2O[C@@H]1CN(C)C(=O)Nc1ccc(C(F)(F)F)cc1	-78*
CCCc1cc(C(=O)NC(C)c2nnc3n2CCNCC3)cs1 (stereo not drawn)	5
Cc1nccn1CC1(O)CCN(C(=O)C(Cc2ccc(F)cc2)c2ccccc2)CC1 (stereo not drawn)	60
CN1C(=O)c2cc(NC(=O)c3cnccn3)ccc2OC[C@H]2O[C@H](CC(=O)N[C@@H]3CCN(Cc4ccccc4)C3)CC[C@@H]21	6
COc1cc(OC)c(NC(=O)NCC(c2cccnc2)c2c[nH]c3ccccc23)cc1Cl (stereo not drawn)	8
Cc1ccc2c(C)cc3n[nH]c(=S)n3c2c1C	9
Cc1nn(C)c(Cl)c1CN(CCN1CCOCC1)Cc1ccco1	-13
CCc1ccc(S(=O)(=O)N2CCC[C@@H]2C(=O)NCCc2csc(C)n2)cc1	-3
O=C(c1ccncc1)N1CC2(C1)[C@@H](c1ccccc1)[C@@H](CO)N2CC1CC1	-31
COc1ccc2c3c(n(C)c2c1)[C@@H](CO)NCC31CN(S(=O)(=O)c2ccc(C)cc2)C1	-38
CCN1CC[C@@]2(CN(C(=O)c3cscn3)C[C@H]2c2ccccc2)C1=O	0
Cc1noc(C)c1NC(=O)Nc1ccc2c(c1)CC(=O)N([C@@H](C)CO)C[C@H](C)[C@@H](CN(C)Cc1ccc(C(F)(F)F)cc1)O2	-40
Cc1ccc(C)c(OCC(=O)NCCS(=O)(=O)N2CCCC2)c1C	-8
Cc1cccc2c1C(NC(=O)c1cnn3c1CCCC3)C(=O)N2 (stereo not drawn)	28
CC(C)NC(=O)[C@@H]1C[C@@H](N)CN1Cc1ccc(-c2cccc(Cl)c2)o1	-40
CC(C)(C)c1ccc(C(=O)N2CCCn3c2nc2ccccc2c3=O)cc1	-40

Taken from the listing, 17 compounds:
SMILES	Tg IFNy HTS
COCC1(C(=O)N2Cc3cnc(C(C)(C)C)nc3C2)CCC1	-16
CCCN1CCC(Cc2noc(C3CCOC(C)(C)C3)n2)CC1 (stereo not drawn)	-22
CC(C)c1nc(CN(C)Cc2cc3ccccc3[nH]c2=O)cs1	7
COc1cc(N)c(Cc2nccc3cc(OC)c(OC)cc23)cc1OC	-1
C[C@H]1CN([C@@H](C)CO)C(=O)c2ccccc2-c2ccccc2CO[C@@H]1CN(C)Cc1cccc(C(=O)O)c1	10
CCOCC1CN(CC2CCOCC2)Cc2ncn(C)c21 (stereo not drawn)	-43
Cc1oc(-c2cccc(Cl)c2)nc1Cn1c(=O)cc(C(=O)N2CCCCC2)c2ccccc21	-68
CC(=O)Oc1ccccc1/C(=C/C=C(c1ccccc1)c1ccccc1)N1CCCCC1	43
CCN1C(=O)C(c2ccccc2)CC12CCN(Cc1nccs1)CC2 (stereo not drawn)	6
COc1ccccc1C(=O)N=C1NC(=O)CC2C(=O)NCCN12 (stereo not drawn)	30
COc1cccc(C2(O)CCN(CCNC(=O)C3CC=CCC3)CC2)c1 (stereo not drawn)	9
CCN(Cc1cccc(C(=O)Nc2cnn(C)c2)c1)Cc1nc(C)no1	6
CSc1ccc(C2c3[nH]c4ccccc4c3CCN2C(=O)c2ccccc2F)cc1 (stereo not drawn)	310
CN1CCCn2c(nc(CNC(=O)c3ccsc3)cc2=O)C1	69
O=C(c1ccco1)N1Cc2ccnn2CC(COc2cccnc2)C1 (stereo not drawn)	55
CSc1ncc(CN(Cc2sccc2C)CC(C)O)cn1 (stereo not drawn)	40
COc1ccc(C2NC(C(=O)O)Cc3c2[nH]c2ccccc32)cc1OC (stereo not drawn)	3

Next section
SMILES	Tg IFNy HTS
CCc1nc2ccccc2n1CC(=O)Nc1cccc(N2CCCCS2(=O)=O)c1	-29
O=S(=O)(c1ccc(F)cc1)N1C[C@@H]2OCCN(c3ncc(F)cn3)[C@H]2C1	-2
Cc1nc2nc(C(=O)NC(C)c3nc4ccccc4s3)cc(C(C)(C)C)n2n1 (stereo not drawn)	-51
c1cc(CN2CCCCC2)cc(OCCCNc2nc3ccccc3s2)c1	10&-65
CCN1C(=O)[C@@H]2CN(C(C)=O)C[C@H]2C12CCN(C(=O)NCCc1ccc(F)cc1)CC2	14
O=C(O)CCCn1cc(NC(=O)COc2ccc3ccccc3c2)cn1	12
NC(=O)C1CCN(C(=O)Nc2ccc(Cl)c(Cl)c2)CC1	4
CC/C=C\C/C=C\C/C=C\C/C=C\C/C=C\C/C=C\CCC(=O)OCC	10
Cc1ccsc1CN(C)c1nc(-c2cccnc2)nc2c1cnn2C	-74*
COCC(=O)N1CC(=O)N2[C@@H](CO)[C@H](c3ccc(C#CC4CC4)cc3)[C@@H]2C1	16
C[C@@H]1CN([C@@H](C)CO)C(=O)c2cc(-c3ccc(F)cc3)cnc2O[C@@H]1CN(C)S(C)(=O)=O	428
Cc1ccccc1NC(=O)Cn1nc(-c2ccc(Cl)cc2)c2ccccc2c1=O	-3
Cc1ccc(Nc2nc(C(=O)Nc3cccc(C)c3C)nc3ccccc23)cc1	13
Cc1ccc(-c2nc(C)c(CCNC(=O)C(=O)Nc3ccccc3C#N)s2)cc1	140
Cc1cccc2[nH]c(C3CCCN3Cc3ncccc3C(=O)O)nc12 (stereo not drawn)	4
CC1CCN(C(=O)c2ncn3c2CN(CC2CC2)S(=O)(=O)c2ccccc2-3)CC1	-3
O=C(CC1N=C2c3ccccc3N=C(SCc3ccccc3Cl)N2C1=O)NCc1cccs1 (stereo not drawn)	-26
CCOC(=O)c1noc(C)c1C(=O)CSc1nc(C)c(C)c(C)c1C#N	20
COc1cccc(C(=O)N2CCn3nnc(COc4ccccn4)c3C2)c1	-57
Nc1nc(Nc2ccccc2)nc2c1ncn2C1OC(CO)C(O)C1O (stereo not drawn)	17
CCn1c(CNC(=O)Cn2c(C(F)(F)F)nc3ccccc32)nc2ccccc21	57
CC(C)COC(=O)N(C)C[C@@H]1OCc2ccccc2-c2ccccc2C(=O)N([C@H](C)CO)C[C@H]1C	-35
CCOCCn1nc(C)cc1C(=O)N1CCC2(CN(C)C(=O)O2)C1 (stereo not drawn)	-2
Cc1ccc(S(=O)(=O)N[C@@H]2CC[C@@H](CC(=O)NCc3ccncn3)O[C@H]2CO)cc1	17
CCCCOC(=O)N1CCC2(CC1)CN(C)CCN2C	1
Cc1ccsc1C(=O)N1CC[C@@H]2OCCN(C)[C@@H]2C1	1
COc1ccc(-c2cc3cccnc3n2CCC#N)cc1	66
CC(C)(C)[S@@](=O)N1Cc2cc(C(=O)N3CCc4ccccc4C3)nc(-c3cccc(-c4cncnc4)c3)c2[C@H]1CCO	47
O=C(Nc1ccc(F)c(F)c1)c1c(O)c2cccnc2n(-c2cccc(F)c2)c1=O	u
C=CCN1C(=O)COC2(CCN(Cc3nccs3)CC2)C1C (stereo not drawn)	-48
C[C@@H]1CN([C@@H](C)CO)C(=O)c2c(c3ccccc3n2C)-c2ccccc2CO[C@@H]1CN(C)C(=O)Nc1ccc2c(c1)OCO2	49
CC(=O)CC1N(C2CCCCCC2)C(=O)C2N(C3CC3)C(=O)C3CC(=O)OC312 (stereo not drawn)	22
Cc1onc(-c2ccncc2)c1C(=O)N1CCn2c(C)ccc2C1C(C)C (stereo not drawn)	28
CCCNC(=O)c1cn(-c2nc(CNc3cccnc3)c3ccccn23)cn1	19
COC(=O)c1cc(C)nc2c1c(=O)n(Cc1nc(-c3cccc(C)c3)oc1C)c(=O)n2C	-9
CCN1CCN(Cc2cc(C(=O)N3CC=CCC3)no2)CC1	7
CCCCOC(=O)C(Cc1ccccc1)NS(=O)(=O)c1ccc(C)cc1 (stereo not drawn)	9
COc1ccc(NC(=O)c2c(O)c3cccnc3n(-c3ccc(F)cc3)c2=O)cc1OC	87
O=c1c2cc(O)c(O)cc2oc2cc(O)c(C3O[C@H](CO)[C@H](O)[C@@H](O)[C@H]3O)c(O)c12 (stereo partly drawn)	11
COc1cc(OC)c2cc(C(=O)NCCN3C(=O)CSC3=O)n(C)c2c1	18
Cn1ccnc1CN1CCc2ncnc(-c3ccccc3)c2CC1	4
Cc1onc(C(C)C)c1C(=O)Nc1nnc(Cc2cccc(F)c2)s1	-29
C[C@H]1CN([C@@H](C)CO)C(=O)CCCn2nncc2CO[C@@H]1CN(C)Cc1ccc(C(=O)Nc2ccccc2N)cc1	-52
CS(=O)(=O)N1CCO[C@H]2[C@@H](Oc3ncccc3F)CC[C@H]21	127
CCCNC(=O)N1CC2(C1)[C@H](c1ccccc1)[C@@H](CO)N2C(=O)CC1CC1	65
Cc1cncc(CN2CCC(=C3c4ccc(Cl)cc4CCc4cccnc43)CC2)c1	-4
CS(=O)(=O)N1CCOCC2(CCN(CC3CCOC3)CC2)C1 (stereo not drawn)	-3
Cc1cc(C)n(C)c(=O)c1C(=O)Nc1ncc(Cc2ccccc2Cl)s1	-25
Cc1cccnc1C(=O)N1CCc2nnc(CCc3ccccc3)n2CC1	0
COc1cc(N2CC[C@H]3[C@@H]2CCN3C(=O)c2ccc(C)o2)ncn1	19
CC(CC(=O)Nc1cccc(N2CCCC2)c1)n1cccn1 (stereo not drawn)	-5
Cc1cc(C(=O)NCCS(C)=O)c(-n2cccc2)s1 (stereo not drawn)	14
CCOc1ccccc1-c1nc(Cn2ccn3nc(-c4ccccc4OC)cc3c2=O)c(C)o1	i
CCOc1ccc(NC(=O)Cn2c(=O)cc(-c3nc(CC)no3)c3ccccc32)cc1	-15
COC(=O)c1scc(C)c1NN1C(=O)c2ccccc2C1=O	55
O=C(C[C@@H]1CC[C@H]2[C@@H](COC[C@@H](O)CN2Cc2nccs2)O1)N1CCC(Cc2ccccc2)CC1	-4
